Calb FLC: C. albicans growth inhibition with fluconazole, primary screen, CaCi-2 strain, Alamar Blue fluorescence; C. albicans CaCi-2 (fluconazole-resistant clinical isolate) + fluconazole, 48 h; growth inhibition, % (no concentration beside the values); 0.57% of 300,000 active;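 active = most replicates above 75%; inconclusive = exactly half above 75%; inactive = most below 75%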;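 note: all wells also contain fluconazole at 8 µg/ml as a sub-toxic cotreatment; 0% = median of DMSO wells and 100% = median of geldanamycin control wells; wells of about 8 µL received 7.5 nL stock; the first replicate is given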
AF4-AF9 inh: inhibitors of AF4 peptide binding to AF9, primary screen, biochemical, AlphaScreen, biotin-AF4 peptide, FLAG-AF9, single point; inhibition, % at 10 µM; AID 651704, 2012; 0.47% of 350,000 active; Protein AF-9 (Homo sapiens), P42568;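 active = every replicate reaching a set inhibition limit, whatever the replicate mean, cut at about 25% in these data; inconclusive = mean inhibition reaches that limit but some replicates miss it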;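 note: 0% = plate neutral control median and 100% = total signal loss; the record names both 10 and 1 µM as test concentration; the first replicate is given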
Target sequence (P42568 whole entry, looked up): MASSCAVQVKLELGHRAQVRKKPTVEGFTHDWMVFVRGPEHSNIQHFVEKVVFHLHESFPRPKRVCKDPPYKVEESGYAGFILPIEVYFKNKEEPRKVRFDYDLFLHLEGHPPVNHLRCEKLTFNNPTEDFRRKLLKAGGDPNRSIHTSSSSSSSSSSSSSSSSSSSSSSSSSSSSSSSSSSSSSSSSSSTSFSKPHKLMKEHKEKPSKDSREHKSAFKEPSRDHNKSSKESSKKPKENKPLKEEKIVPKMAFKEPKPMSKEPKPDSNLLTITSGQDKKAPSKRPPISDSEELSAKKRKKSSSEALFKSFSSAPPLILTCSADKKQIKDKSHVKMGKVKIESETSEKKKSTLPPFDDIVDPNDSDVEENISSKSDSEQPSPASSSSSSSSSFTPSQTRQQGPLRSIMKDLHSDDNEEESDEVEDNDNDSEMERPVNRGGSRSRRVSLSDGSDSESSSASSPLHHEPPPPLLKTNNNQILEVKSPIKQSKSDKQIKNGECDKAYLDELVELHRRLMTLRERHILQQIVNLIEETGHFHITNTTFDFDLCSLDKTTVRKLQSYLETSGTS
T cruzi repl: inhibitors of intracellular T. cruzi growth, primary screen, luminescence, NIH3T3 host cells | T. cruzi beta-gal in NIH3T3, 90 h | inhibition, % (concentration not given with the values) | 1.4% of 300,000 active | AID 1885, 2009;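 active = mean inhibition across valid replicates above about 55%, limit read from the data; inconclusive = mean below that limit but half or more replicates reach it; inactive = mean below it, under half of replicates reach it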;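 note: signal also drops with host cell toxicity which is not excluded here; 0% = plate median of DMSO wells and 100% = zero luminescence signal; higher percent means less beta-gal luminescence so fewer parasites; stock transfer was 50 nL into about 50 µL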
RanGTP-Impb inh: inhibitors of RanGTP-importin-beta interaction, primary screen, biochemical, FRET, CFP-Ran, YFP-importin-beta, homogeneous. Ran GTPase (GTP-bound) - importin-beta complex. cell-free CFP-Ran/YFP-importin-beta FRET ratio. inhibition, % (concentration not given with the values). 1.1% of 300,000 active. AID 2216, 2009;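 active = most replicates above 15%; inconclusive = exactly half above 15%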;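 note: 0% = DMSO wells and 100% = Ran loaded with GDP instead of GTP; wells of about 40 µL received 100 nL stock; the first replicate is given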
Beta apoptosis: inhibitors of cytokine-induced beta cell apoptosis, primary screen, luminescence; INS-1E cytokine-induced death, ATP luminescence, 48 h; percent of positive-control rescue, neutral wells zero; protection from apoptosis, % (test concentration not listed); 0.8% of 300,000 active;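 active = all replicates at 75% or more, or half of them and the mean; inconclusive = half reach 75% but not the mean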;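 note: 0% = cytokine-treated negative control wells and 100% = positive control rescue; higher means more ATP so stronger rescue from cytokine killing; wells of about 40 µL received 100 nL stock; the first replicate is given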
Ecoli rRNA inh: reduced GFP signal of wild-type E. coli, primary screen, bacterial rRNA inhibitor project, GFP/RFP fluorescence, OD600, single point; E. coli WT GFP vs humanized-ribosome RFP mutants, 24 h; active compounds read low; DMSO median 0, no signal -100; GFP signal change (wild-type ribosome), % (concentration not given with the values); 1.6% of 350,000 active; AID 720706, 2013;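 active = significant combined selectivity score with lowered wild-type GFP, culture density cut under 30%, mutant RFP and density less affected; inactive = any of these conditions unmet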; note: one replicate is shown; some compounds called inactive have numbers as strong as hits
FGF22 binding: binders of human FGF22 protein, primary screen, FGF22 synaptogenesis inhibitor project, biophysical, thermal shift, single point | 1.5% of 340,000 active | recombinant FGF22 thermal shift, SYPRO orange fluorescence; percent of sucrose octasulfate shift, DMSO zero | Fibroblast growth factor 22 (Homo sapiens), Q9HCT0 | calls only at 9.99 µM | AID 651658, 2012;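 active = melting point raised past a set limit in the mean and every replicate; inconclusive = no clear call; three in four hits are not shown here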
Target sequence (Q9HCT0 whole entry, looked up): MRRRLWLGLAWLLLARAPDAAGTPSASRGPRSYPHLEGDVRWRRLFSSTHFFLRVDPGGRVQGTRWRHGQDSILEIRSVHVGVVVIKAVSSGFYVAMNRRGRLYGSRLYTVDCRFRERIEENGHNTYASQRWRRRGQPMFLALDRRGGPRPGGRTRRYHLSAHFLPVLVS
ALR inh: inhibitors of human ALR sulfhydryl oxidase, primary screen, biochemical, H2O2 detection, HRP-luminol luminescence, single point; FAD-linked sulfhydryl oxidase ALR (Homo sapiens), P55789; purified ALR, DTT oxidation; inhibition, % (no concentration beside the values); 3.8% of 290,000 active; AID 485317, 2010;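 active = mean and each replicate at 75% or more; inconclusive = only one of the two met; inactive = neither met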;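 note: stock transfer was 7.5 nL into about 7.5 µL; 0% = neutral wells and 100% = wells with inactivated enzyme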
Target sequence (P55789 whole entry, looked up): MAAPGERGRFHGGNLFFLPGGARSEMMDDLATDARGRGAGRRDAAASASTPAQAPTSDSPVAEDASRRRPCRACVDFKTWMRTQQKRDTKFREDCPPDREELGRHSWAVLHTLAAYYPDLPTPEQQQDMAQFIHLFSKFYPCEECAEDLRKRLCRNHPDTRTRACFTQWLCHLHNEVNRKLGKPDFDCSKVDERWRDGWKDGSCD
Ecoli rRNA inh OD600: second read-out of Ecoli rRNA inh, no call of its own (marks repeat the call); OD600 change, %; measured here: OD600 growth;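 optical density of the mix in the first replicate; 0 = DMSO median and -100 = no signal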
Ecoli rRNA inh RFP: also measured in Ecoli rRNA inh; calls as there; RFP signal change, %; measured here: RFP humanized mutant strains;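 first replicate; 0 = DMSO median and -100 = no signal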
* marks the source's active call; other numbers are inactive results; i = inactive; ? = inconclusive; . = not tested or not shown. Some of the compounds tested. The share of hits here may be higher or lower than overall.

nr	SMILES	Ecoli rRNA inh OD600	Beta apoptosis	T cruzi repl	Ecoli rRNA inh RFP	Ecoli rRNA inh
1	Cc1ccc(N(CCCCN2C(=O)c3ccccc3C2=O)C(=O)c2cccc([N+](=O)[O-])c2)cc1	.	-2	12	.	.
2	O=C(c1ccco1)N1CCN(S(=O)(=O)c2ccc(Oc3ccccc3)cc2)CC1	-18	6	-16	1.8	-11
3	N#CCc1c(C#N)c(N)nc(Nc2ccccc2)c1C#N	2	-6	5	-4.2	-4
4	Cc1ccccc1-c1cc2nc(C)c(Cl)c(=O)n2[nH]1	3	-3	-18	0.7	5
5	O=C(NCCN1CCN(C(=O)Nc2ccccc2)CC1)Nc1ccccc1	6	-6	-2	2.6	9
6	Cc1ccc(S(=O)(=O)N2[C@@H](c3cccc(Cl)c3)C(C(=O)O)=CC[C@H]2c2cccs2)cc1	-55	0	.	-11	-39
7	COc1ccc(-c2cc3c(=O)n(CC(=O)Nc4cccc(Cl)c4)ncn3n2)cc1	18	3	8	-4.8	-4
8	CC(=O)CSc1nc2cc3c(cc2cc1C#N)OCCO3	3	-9	8	-5.0	29
9	CC1(c2ccc3ccccc3c2)NC(=O)N(CC(=O)N2CCN(S(=O)(=O)c3ccccc3F)CC2)C1=O (stereo not drawn)	6	53	7	6.6	3
10	O=C(NCCS(=O)(=O)NCc1cccnc1)c1ccccc1	6	2	-9	-2.0	8
11	CC(C)NC(=O)C1CCCN(c2nnc(-n3cccc3)s2)C1 (stereo not drawn)	3	-3	-13	-1.9	6
12	CCN(CC(=O)NCc1ccc(Cl)cc1)C(=O)CN1C(=O)NC(CC)(c2ccccc2)C1=O (stereo not drawn)	-1	-3	-1	3.6	-4
13	CC(C)(C)NC(=O)COc1ccc(-c2ccccc2)cc1	.	-6	0	.	.
14	Nc1ccccc1NC(=O)c1ccccc1	.	7	-3	.	.
15	O=C(COC(=O)c1ccccc1C(=O)c1ccc(Cl)c([N+](=O)[O-])c1)NC1CCCCCC1	.	4	?	.	.

nr	RanGTP-Impb inh	ALR inh	FGF22 binding	Calb FLC	AF4-AF9 inh
1	0.0	-6	.	-7	.
2	-0.3	-12	i	16	-5.7
3	4.3	1	i	-5	1.2
4	6.6	0	.	0	-0.2
5	-0.4	-2	i	-2	1.5
6	.	6	i	.	1.0
7	-0.3	-7	i	-4	-2.3
8	0.3	-15	i	56	-0.9
9	1.6	3	i	9	-6.5
10	1.2	0	i	-4	-12
11	7.5	-28	i	-1	-6.4
12	0.4	-5	i	-1	-2.0
13	-3.5	23	.	-37	.
14	0.4	.	.	7	.
15	3.0	2	.	5	.

Next results follow:
nr	SMILES	Ecoli rRNA inh OD600	Beta apoptosis	T cruzi repl	Ecoli rRNA inh RFP	Ecoli rRNA inh
16	CCN(CC)S(=O)(=O)c1cccc(C(=O)NCC(c2ccccc2)N(C)C)c1 (stereo not drawn)	0	-3	-11	0.0	5
17	CCCCC(=O)Nc1nn(CC)c2nc3c(C)cccc3cc12	8	.	-10	-2.7	7
18	COn1c(SCc2cccc(Cl)c2)nc2ccccc2c1=O	.	7	20	.	.
19	C=CCNC(=S)NNC(=O)c1csc(C)c1CC	.	-2	-14	.	.
20	O=C(OCC(=O)N1CCOCC1)c1cc(F)c(F)cc1Cl	19	-6	-5	1.1	8
21	COC(=O)C(Cc1ccc(OC(=O)c2ccccc2Cl)cc1)N1Cc2ccccc2C1=O (stereo not drawn)	.	.	-9	.	.
22	CCC(=O)N1CCN(c2nc(CC)nc3sc4c(c23)CCCC4)CC1	-9	2	8	0.5	-6
23	O=C(NCCc1ccccc1)C1CCCN1S(=O)(=O)c1ccc(F)cc1 (stereo not drawn)	.	2	-15	.	.
24	CCNC(=O)N1CCC(n2nccc2NC(=O)CCOc2ccccc2)CC1	-2	-7	-9	-1.7	2
25	COc1ccccc1CN1CC(C(=O)N2CCOCC2)CCC1=O (stereo not drawn)	-2	-4	-7	-0.5	1
26	C=CCN1C(=O)C2(OCCCO2)c2cccc(Cl)c21	-3	-3	-3	-0.1	7
27	Cc1ccc(NC(=O)[C@@H]2CCC(=O)N2C2OC(=O)c3ccccc32)cc1Cl (stereo partly drawn)	.	-1	-12	.	.
28	CN1C(=O)N(C)C2CC1N(C)C(=O)N2C	.	-5	-2	.	.
29	O=c1nc(/C=C/c2cccn2-c2ccc([N+](=O)[O-])cc2)cc(C(F)(F)F)[nH]1	18	0	-22	1.8	8
30	O=C1Nc2ccc(Cl)cc2/C1=C/C1CC=CCC1 (stereo not drawn)	.	-12	20	.	.

nr	RanGTP-Impb inh	ALR inh	FGF22 binding	Calb FLC	AF4-AF9 inh
16	0.0	2	i	-9	1.0
17	37*	.	i	14	-2.3
18	0.4	-8	.	32	.
19	3.4	4	.	-4	.
20	-0.5	.	i	-9	1.3
21	-0.3	3	.	-6	.
22	-4.2	-9	i	-9	-3.5
23	2.7	-15	.	1	.
24	-1.8	-4	i	-1	0.7
25	3.5	-4	i	1	-9.1
26	1.6	-8	i	7	2.5
27	7.3	-1	i	-3	-1.2
28	0.6	-1	.	-22	.
29	-13	-15	.	-8	2.0
30	-5.3	2	.	-46	.

Just Ecoli rRNA inh RFP and T cruzi repl, for 2 of the compounds above:
| entry | mol | Ecoli rRNA inh RFP | T cruzi repl |
| --- | --- | --- | --- |
| 4 | Cc1ccccc1-c1cc2nc(C)c(Cl)c(=O)n2[nH]1 | 0.7 | -18 |
| 23 | O=C(NCCc1ccccc1)C1CCCN1S(=O)(=O)c1ccc(F)cc1 (stereo not drawn) | . | -15 |

Remaining list, next part
nr	SMILES	Ecoli rRNA inh OD600	Beta apoptosis	T cruzi repl	Ecoli rRNA inh RFP	Ecoli rRNA inh
31	CC(Sc1nnc(-c2ccccc2F)n1C1CC1)C(=O)NC(N)=O (stereo not drawn)	20	0	6	-0.8	3
32	Cc1ccc(OCCn2c(C)c(/C=N/n3cnnc3)c3ccccc32)cc1	.	7	36	.	.
33	O=C(Oc1ccc2c(=O)c(Oc3ccc4ccccc4c3)coc2c1)c1cccnc1	.	-5	-14	.	.
34	CCN(Cc1cc2ccccc2[nH]c1=O)S(=O)(=O)c1ccc(OC)cc1	-16	-1	0	-1.9	-10
35	CCOC(=O)c1c(-c2ccc(OC)cc2)nc2nonc2c1N	.	-9	9	.	.
36	O=C(NC1CC1)C1=C[C@@H](c2ccc(C(F)(F)F)cc2)C[C@@H](OCc2ccc(CO)cc2)O1	.	-3	21	.	.
37	CCCS(=O)(=O)N1CCC(Cc2ccc(OC)cc2)(C(=O)OCC)CC1	-21	0	-2	-5.2	-18
38	Cc1ccc(S(=O)(=O)NC(=O)N2CCN(Cc3c(F)cccc3Cl)CC2)cc1	-2	5	-7	1.5	15
39	Cn1ccnc1SCC(=O)Nc1cc(C(F)(F)F)ccc1N1CCOCC1	.	0	5	.	.
40	CC1CCN(C(=O)CCNS(=O)(=O)c2ccc3c(c2)c(=O)n(C)c(=O)n3C)CC1	20	-9	1	-1.0	2
41	Cc1cccc(Nc2nc(-c3ccc(F)cc3)cs2)n1	1.9*	7	4	3.5*	-18*
42	CC(C)(C)OC(=O)NNC(=O)c1cccs1	13	.	7	-0.3	5
43	CCOC(=O)C1(O)CC(C)=NN1C(=O)c1cccc(Cl)c1 (stereo not drawn)	.	.	-11	.	.
44	CC(=O)N1CCCc2cc(S(=O)(=O)CCC(=O)N3CCN(c4ccccc4)CC3)ccc21	7	.	2	2.9	3
45	COCCNC(=O)c1nc2ccccc2s1	13	-3	-8	-2.0	0

nr	RanGTP-Impb inh	ALR inh	FGF22 binding	Calb FLC	AF4-AF9 inh
31	2.9	1	i	-5	5.1
32	9.2	-1	.	2	.
33	-1.4	-13	.	3	.
34	1.7	14	i	4	-1.7
35	1.3	-6	.	-2	.
36	-0.9	-4	.	5	.
37	-1.4	-3	i	5	-0.4
38	?	-6	i	-4	-3.9
39	-4.3	12	.	-5	.
40	2.0	-4	i	-9	1.9
41	0.2	-2	i	-25	-2.4
42	5.2	5	i	8	-0.7
43	2.1	1	.	1	.
44	2.5	61	i	-2	-13
45	1.3	-2	.	1	0.1

(continued)
nr	SMILES	Ecoli rRNA inh OD600	Beta apoptosis	T cruzi repl	Ecoli rRNA inh RFP	Ecoli rRNA inh
46	O=C(Oc1ccc2ccc(OC(=O)N3CCOCC3)cc2c1)N1CCOCC1	.	2	4	.	.
47	CCOC(=O)N1CCN(c2nc(C)cc(C(F)(F)F)n2)CC1	.	2	-7	.	.
48	CCOc1ccc(Cc2n[nH]c(=S)n2Cc2ccccc2)cc1	-36	1	15	-7.0	-28
49	Cc1c(N2C(=O)CSC23C(=O)Nc2ccccc23)c(=O)n(-c2ccccc2)n1C (stereo not drawn)	2	-9	-6	-2.2	11
50	Fc1ccc(N2CN(Cc3cccnc3)CNC2=S)cc1	6	-6	.	-0.3	3
51	Cc1ccc(NS(=O)(=O)c2cc(C(=O)OCC(=O)NCC3CCCO3)ccc2C)cc1 (stereo not drawn)	7	2	-4	1.6	-14
52	O=C(NC(=S)Nc1cccnc1)c1ccccc1	11	-1	-9	-2.2	10
53	C/C(=C\C(=O)N1CCc2ccccc21)C(=O)O	.	-8	-11	.	.
54	Cc1cc([N+](=O)[O-])nn1CC(=O)N(C)Cc1ccccc1	4	3	1	-1.2	10

nr	RanGTP-Impb inh	ALR inh	FGF22 binding	Calb FLC	AF4-AF9 inh
46	0.2	-27	.	-7	.
47	-4.5	-12	.	-4	.
48	0.4	95*	i	14	-4.5
49	2.7	-12	i	1	-1.2
50	-4.6	.	i	14	-0.2
51	-1.1	.	i	0	1.4
52	0.0	17	i	-1	4.1
53	?	7	.	7	.
54	2.6	1	i	6	4.9

Profiles, quoted from the list. Values in the order: Ecoli rRNA inh OD600, Beta apoptosis, T cruzi repl, Ecoli rRNA inh RFP, Ecoli rRNA inh, RanGTP-Impb inh, ALR inh, FGF22 binding, Calb FLC, AF4-AF9 inh
O=C(NC1CC1)C1=C[C@@H](c2ccc(C(F)(F)F)cc2)C[C@@H](OCc2ccc(CO)cc2)O1 is listed as ., -3, 21, ., ., -0.9, -4, ., 5, .
O=C(OCC(=O)N1CCOCC1)c1cc(F)c(F)cc1Cl is listed as 19, -6, -5, 1.1, 8, -0.5, ., i, -9, 1.3
O=C(NC(=S)Nc1cccnc1)c1ccccc1 is listed as 11, -1, -9, -2.2, 10, 0.0, 17, i, -1, 4.1
CCOC(=O)c1c(-c2ccc(OC)cc2)nc2nonc2c1N is listed as ., -9, 9, ., ., 1.3, -6, ., -2, .

Screening data from PubChem.
